Source: PubChem
MITF primary: inhibitors of human MITF | inhibition, % at 2.6 µM | AlphaScreen MITF homodimerization, bead proximity signal | hit rate 0.91% among 650,000; in the data active means inhibition above about 50%;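 further: 0% = vehicle wells with protein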
GPR151 activ: activators of human GPR151. Q8TDV0. PathHunter beta-arrestin GPR151 cells, luminescence. activation, % at 11.2 µM. hit rate 1% among 650,000; in the data active means activation above about 4.9%;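 further: 0% = median of compound wells and 100% = cells with positive control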
Target sequence (Q8TDV0 whole entry, looked up): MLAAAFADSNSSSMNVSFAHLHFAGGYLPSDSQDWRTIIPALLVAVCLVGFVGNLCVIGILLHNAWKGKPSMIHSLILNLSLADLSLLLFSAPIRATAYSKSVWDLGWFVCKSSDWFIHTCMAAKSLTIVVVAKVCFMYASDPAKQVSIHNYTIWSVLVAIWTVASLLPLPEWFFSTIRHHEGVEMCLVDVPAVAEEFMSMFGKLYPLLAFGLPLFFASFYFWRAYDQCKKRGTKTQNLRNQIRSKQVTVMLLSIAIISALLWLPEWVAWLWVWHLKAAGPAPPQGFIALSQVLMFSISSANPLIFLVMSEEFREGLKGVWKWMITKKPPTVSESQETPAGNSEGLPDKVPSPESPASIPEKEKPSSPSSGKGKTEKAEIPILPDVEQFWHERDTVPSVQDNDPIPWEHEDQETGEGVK
FBW7 act: activators of human E3 ligase FBW7. AID 1259310. Q969H0. AlphaScreen FBW7–phospho-cyclin E peptide binding, activator screen. normalized activity (activation), % at 26.1 µM. hit rate 0.13% among 650,000; in the data active means normalized activity above about 1.9%;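 further: purified mutant Fbw7 with reduced substrate affinity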
* hit, by the source's call. Not all compounds are listed; rates above refer to the full screens.

1: CCOc1ccccc1-c1nc(C(N)=O)c2[nH]c(=O)n(-c3ccccc3OC)c2n1
2: COc1ccccc1-n1c(=O)[nH]c2c(C(N)=O)nc(-c3cccs3)nc21
3: O=C(CC1OC(=O)c2ccccc21)c1ccc(Br)cc1 (configuration not stated)
4: O=[N+]([O-])c1cccc2ccc(Cl)nc12
5: COc1cc(/C=N/NC(N)=S)ccc1O
6: COc1cc(C2NC(=O)NC(c3ccccc3)=C2C(=O)c2ccccc2)ccc1O (configuration not stated)

| assay / compound | 1 | 2 | 3 | 4 | 5 | 6 |
| --- | --- | --- | --- | --- | --- | --- |
| FBW7 act | 0.9 | 0.3 | -0.2 | 0.1 | 0.2 | -0.3 |
| GPR151 activ | -0.8 | 0.0 | -0.5 | 0.8 | 0.9 | -1.6 |
| MITF primary | 5 | 18 | -8 | -8 | 1 | 3 |

Exported as a markdown table: entries from further up.
| # | Molecule | FBW7 act | GPR151 activ | MITF primary |
| --- | --- | --- | --- | --- |
| 5 | COc1cc(/C=N/NC(N)=S)ccc1O | 0.2 | 0.9 | 1 |
| 1 | CCOc1ccccc1-c1nc(C(N)=O)c2[nH]c(=O)n(-c3ccccc3OC)c2n1 | 0.9 | -0.8 | 5 |

Part of the list above, limited to FBW7 act:
item	SMILES	FBW7 act
3	O=C(CC1OC(=O)c2ccccc21)c1ccc(Br)cc1 (configuration not stated)	-0.2
5	COc1cc(/C=N/NC(N)=S)ccc1O	0.2
2	COc1ccccc1-n1c(=O)[nH]c2c(C(N)=O)nc(-c3cccs3)nc21	0.3
6	COc1cc(C2NC(=O)NC(c3ccccc3)=C2C(=O)c2ccccc2)ccc1O (configuration not stated)	-0.3
1	CCOc1ccccc1-c1nc(C(N)=O)c2[nH]c(=O)n(-c3ccccc3OC)c2n1	0.9

Carrying on:
7: COC(=O)CNC(=O)Cn1cnc2c1c(=O)n(C)c(=O)n2C
8: O=C(O)CN(Cc1ccccc1)S(=O)(=O)c1ccc(Br)cc1
9: Cc1cccc(C(=O)CC2OC(=O)c3ccccc32)c1 (configuration not stated)
10: Fc1ccc(C2CC(c3c(F)cccc3Cl)n3ncnc3N2)cc1 (configuration not stated)
11: CC(C)c1ccc(/C=N/NC(N)=S)cc1
12: Nc1nonc1-c1nc2ccccc2n1Cc1cccc(C(F)(F)F)c1

| assay / compound | 7 | 8 | 9 | 10 | 11 | 12 |
| --- | --- | --- | --- | --- | --- | --- |
| FBW7 act | -0.1 | 0.0 | 0.2 | -0.1 | -0.1 | 0.1 |
| GPR151 activ | 1.0 | -0.1 | -1.2 | 2.0 | 0.1 | 0.3 |
| MITF primary | 13 | -10 | 9 | -8 | -9 | 9 |

13: O=C(Nc1ccccc1)c1ccccc1N1C(=O)c2ccccc2C1=O
14: COc1ccc(C2CC(c3ccc(Br)cc3)=NN2C(=O)CCC(=O)O)cc1 (configuration not stated)
15: COc1ccc(CNC(=O)C(=O)Nc2ccc(Cl)cc2)cc1
16: Cc1cc(/C=C2/SC(=S)N(CC(=O)O)C2=O)c(C)n1-c1ccccc1
17: O=C1c2ccc(Oc3cccc([N+](=O)[O-])c3)cc2C(=O)N1c1c[nH]c(=O)[nH]c1=O
18: NS(=O)(=O)c1ccc(NC(=O)CN2CCN(c3ccc(Cl)cc3)CC2)cc1

| assay / compound | 13 | 14 | 15 | 16 | 17 | 18 |
| --- | --- | --- | --- | --- | --- | --- |
| FBW7 act | 0.2 | 0.0 | -0.1 | -0.3 | -0.1 | 0.3 |
| GPR151 activ | -1.4 | 1.2 | -0.2 | 0.1 | -0.2 | -1.2 |
| MITF primary | -1 | 15 | 6 | -3 | -9 | 17 |
